Beta2AR agonist = beta2AR agonists driving receptor internalization, primary screen, cell-based, FAP fluorogen, flow cytometry; AID 504454, 2011; 0.43% of 340,000 active; response, % (no concentration beside the values); Am2.2-beta2AR cells; reference of the scale not given here;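 active = response above a set limit, near 3 SD of response in nonfluorescent compounds, cut at about 42% in these data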;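 also: stock transfer was 100 nL into about 11 µL; a reference agonist was the positive control; negative values mostly stem from fluorescent compounds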
Target sequence (P07550 whole entry, looked up): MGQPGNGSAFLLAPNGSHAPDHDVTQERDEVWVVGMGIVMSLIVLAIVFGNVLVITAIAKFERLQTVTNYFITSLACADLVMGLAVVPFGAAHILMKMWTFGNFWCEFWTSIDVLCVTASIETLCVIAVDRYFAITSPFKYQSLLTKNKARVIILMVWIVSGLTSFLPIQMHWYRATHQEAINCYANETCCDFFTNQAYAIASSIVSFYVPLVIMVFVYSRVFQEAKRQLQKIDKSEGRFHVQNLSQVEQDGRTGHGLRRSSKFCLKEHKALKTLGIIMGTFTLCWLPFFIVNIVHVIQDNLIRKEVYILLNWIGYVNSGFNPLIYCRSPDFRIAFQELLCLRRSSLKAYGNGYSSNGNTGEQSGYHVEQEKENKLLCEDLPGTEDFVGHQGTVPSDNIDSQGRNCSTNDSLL
LANA-H2A inh = blockers of LANA interaction with H2A/H2B – biochemical, FP readout, HTS, primary screen; Protein LANA1 (Human herpesvirus 8 type P (isolate GK18)), Q9QR71; cell-free LANA-H2A/H2B peptide, fluorescence polarization; inhibition, % (concentration not given with the values); 0.6% of 320,000 active; in the data active = inhibition mostly above about 10%, no sharp cut-off; inactive = mostly below about 6.7%;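 also: stock transfer was 7.5 nL into about 10 µL; 0% = median of vehicle wells and 100% = median of positive control wells; one replicate is shown; the record names a cut of 25% in any replicate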
Vif A3G = inhibitors of Vif binding to APOBEC3G peptide, primary screen, biochemical, TR-FRET, GST-Vif 1-94, biotin-A3G peptide, dose response retest (AID 1117319); TR-FRET GST-Vif / biotin-A3G peptide binding; higher % means a stronger effect; test concentration not given here; strong numbers were not always called active; Virion infectivity factor (Human immunodeficiency virus type 1 group M subtype B (isolate …; 0.57% of 260,000 active; inhibition, %; hits with a dose series show IC50 in µM;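 active = above the screen mean plus three standard deviations and confirmed in dose response; inconclusive = results disagree or hit not tested in dose response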;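 also: Vif residues 1-94 fused to GST binding biotinylated APOBEC3G peptide 110-148; 0% = full assay without inhibitor and 100% = GST in place of GST-Vif; retest series ran down from 100 µM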
HNF4A DNA FP = change in binding of human HNF4A to DNA, primary screen, biochemical, fluorescence polarization, FITC-DNA; Hepatocyte nuclear factor 4-alpha (Homo sapiens), P41235; 1 h; activity change, % at 10 µM; 0.3% of 360,000 active; AID 1224865, 2016; in the data active = activity change above about 30%, passing the limit was not always enough;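 also: controls were the assay level and a saturating level of protein; the project sought stronger binding though the title names inhibitors; some compounds called inactive have numbers as strong as hits; positive values seem to mean higher polarization but the record does not say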
Target sequence (P41235 whole entry, looked up): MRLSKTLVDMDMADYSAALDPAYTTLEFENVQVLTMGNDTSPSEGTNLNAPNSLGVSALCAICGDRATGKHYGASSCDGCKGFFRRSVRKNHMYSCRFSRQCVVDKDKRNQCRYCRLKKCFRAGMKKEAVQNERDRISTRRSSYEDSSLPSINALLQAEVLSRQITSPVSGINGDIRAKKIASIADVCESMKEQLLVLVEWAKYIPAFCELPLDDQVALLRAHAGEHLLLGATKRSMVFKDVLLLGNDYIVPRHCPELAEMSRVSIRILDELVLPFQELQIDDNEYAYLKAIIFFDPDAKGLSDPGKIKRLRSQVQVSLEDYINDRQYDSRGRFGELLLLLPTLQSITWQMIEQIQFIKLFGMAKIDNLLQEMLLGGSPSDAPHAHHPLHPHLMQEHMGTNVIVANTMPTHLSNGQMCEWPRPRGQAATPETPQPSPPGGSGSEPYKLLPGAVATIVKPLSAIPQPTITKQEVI
RanGTP-Impb inh = inhibitors of RanGTP-importin-beta interaction, primary screen, biochemical, FRET, CFP-Ran, YFP-importin-beta, homogeneous | cell-free CFP-Ran/YFP-importin-beta FRET ratio | inhibition, % (concentration not given with the values) | AID 2216, 2009 | 1.1% of 300,000 active;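 active = most replicates above 15%; inconclusive = exactly half above 15%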;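 also: 0% = DMSO wells and 100% = Ran loaded with GDP instead of GTP; wells of about 40 µL received 100 nL stock; the first replicate is given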
ALR inh = inhibitors of human ALR sulfhydryl oxidase, primary screen, biochemical, H2O2 detection, HRP-luminol luminescence, single point; FAD-linked sulfhydryl oxidase ALR (Homo sapiens), P55789; purified ALR, DTT oxidation; inhibition, % (test concentration not listed); 3.8% of 290,000 active; AID 485317, 2010;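 active = mean and each replicate at 75% or more; inconclusive = only one of the two met; inactive = neither met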;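 also: stock transfer was 7.5 nL into about 7.5 µL; 0% = neutral wells and 100% = wells with inactivated enzyme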
Target sequence (P55789 whole entry, looked up): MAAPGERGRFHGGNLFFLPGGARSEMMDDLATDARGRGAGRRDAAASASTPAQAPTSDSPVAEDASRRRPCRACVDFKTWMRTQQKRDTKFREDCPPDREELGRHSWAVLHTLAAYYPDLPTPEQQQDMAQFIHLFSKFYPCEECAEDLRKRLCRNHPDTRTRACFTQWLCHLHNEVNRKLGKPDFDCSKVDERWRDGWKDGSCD
Calb FLC = C. albicans growth inhibition with fluconazole, primary screen, CaCi-2 strain, Alamar Blue fluorescence; C. albicans CaCi-2 (fluconazole-resistant clinical isolate) + fluconazole, 48 h; growth inhibition, % (no concentration beside the values); 0.57% of 300,000 active;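 active = most replicates above 75%; inconclusive = exactly half above 75%; inactive = most below 75%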;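 also: all wells also contain fluconazole at 8 µg/ml as a sub-toxic cotreatment; 0% = median of DMSO wells and 100% = median of geldanamycin control wells; wells of about 8 µL received 7.5 nL stock; the first replicate is given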
* hit, by the source's call. Rows were taken by chance; any-hit rate near 6.3%.

What do the screens show for `Cc1occc1C(=O)N1CCCC(Nc2ccc(F)c(F)c2)C1` (centres undefined)?
Beta2AR agonist: -1; LANA-H2A inh: 1.7; Vif A3G: -3%; HNF4A DNA FP: 3.3; RanGTP-Impb inh: 2.3; ALR inh: 50; Calb FLC: 22

Results for COc1ccc(N2CCN(C(=O)c3ccccc3NS(=O)(=O)c3ccc(C)cc3)CC2)cc1 ?
Beta2AR agonist: 14; LANA-H2A inh: -14; HNF4A DNA FP: -3.2; RanGTP-Impb inh: 2.0; ALR inh: 24; Calb FLC: 25

Results for Cc1cc(C)c(C#N)c(N2CCC(C(N)=O)CC2)n1 ?
Beta2AR agonist: 3; LANA-H2A inh: 3.9; Vif A3G: -6%; HNF4A DNA FP: 2.5; RanGTP-Impb inh: -1.0; Calb FLC: -5

Results for CC(CCc1ccccc1)NC(=O)COC(=O)c1cccnc1Cl (centres undefined) ?
Beta2AR agonist: -2; LANA-H2A inh: -1.1; Vif A3G: 1%; HNF4A DNA FP: -1.2; ALR inh: 0

How did CC1CCN(Cc2c(C(=O)N/N=C/c3cccc(Cl)c3)nnn2-c2nonc2N)CC1 do in these assays?
Beta2AR agonist: -2; LANA-H2A inh: -0.1; HNF4A DNA FP: 3.6; RanGTP-Impb inh: 0.4; Calb FLC: -9

Results for CCCc1c(C(=O)Nc2ccc(F)cc2)cnn1-c1ccccc1 ?
Beta2AR agonist: -6; LANA-H2A inh: -3.2; HNF4A DNA FP: 0.3; RanGTP-Impb inh: 3.6; ALR inh: -15; Calb FLC: 0

How did CCCn1c(SCC(=O)Nc2cccc(C(=O)OCC)c2)nnc1-c1ccoc1C do in these assays?
Beta2AR agonist: -8; LANA-H2A inh: -2.6; Vif A3G: inconclusive; HNF4A DNA FP: 6.7; RanGTP-Impb inh: 1.4; ALR inh: -11; Calb FLC: 8

Results for COc1ccc(S(=O)(=O)N(Cc2ccccc2)Cc2nc3ccccc3c(=O)[nH]2)cc1 ?
Beta2AR agonist: -4; LANA-H2A inh: -2.1; Vif A3G: 5%; HNF4A DNA FP: 1.5; RanGTP-Impb inh: 4.0; Calb FLC: -1

What do the screens show for `CCCOc1ccc(C(=O)NNC(=S)NC(=O)c2ccco2)cc1`?
Beta2AR agonist: -8; LANA-H2A inh: 8.9; Vif A3G: 2%; HNF4A DNA FP: -1.9; RanGTP-Impb inh: 2.5; ALR inh: 50; Calb FLC: 78*

Results for COc1ccc(C2C(CC(=O)O)=C(Nc3ccccc3)C(=O)N2c2ccccc2)cc1 (centres undefined) ?
Beta2AR agonist: 2; LANA-H2A inh: -1.9; Vif A3G: -6%; HNF4A DNA FP: 0.4; RanGTP-Impb inh: inconclusive; ALR inh: 64; Calb FLC: -24

What do the screens show for `CC1=C(C(=O)Nc2cccc(F)c2)C(c2ccsc2)C2=C(CC(C)(C)CC2=O)N1` (centres undefined)?
Beta2AR agonist: 11; LANA-H2A inh: -3.5; Vif A3G: -1%; HNF4A DNA FP: -0.1; RanGTP-Impb inh: -1.2; ALR inh: 0; Calb FLC: 3

How did CCCC(C(=O)NCC1CCCO1)N(Cc1ccco1)C(=O)CNS(=O)(=O)c1ccccc1 (centres undefined) do in these assays?
Beta2AR agonist: 4; LANA-H2A inh: -4.7; Vif A3G: -1%; RanGTP-Impb inh: 2.6; ALR inh: 0; Calb FLC: -1

Results for Cc1ccc(NC(=O)CN(C)C(=O)COC(=O)c2ccc(NC(=O)CC#N)cc2)cc1 ?
Beta2AR agonist: -1; LANA-H2A inh: -3.7; Vif A3G: -4%; HNF4A DNA FP: 5.6; ALR inh: 90*

Results for COc1ccc(C(NC(=O)C(C)C)c2c(O)ccc3ccccc23)cc1 (centres undefined) ?
Beta2AR agonist: -1; LANA-H2A inh: -1.6; Vif A3G: 7%; HNF4A DNA FP: -4.2; RanGTP-Impb inh: -1.1; ALR inh: -13; Calb FLC: 0

What do the screens show for `Cn1c(N)c(C(=O)COC(=O)c2cnc(Cl)c(Cl)c2)c(=O)n(C)c1=O`?
Beta2AR agonist: 1; LANA-H2A inh: -1.4; Vif A3G: -7%; HNF4A DNA FP: 2.5; RanGTP-Impb inh: -2.0; ALR inh: 12; Calb FLC: 1

How did O=C(CCn1nnc2ccccc21)Nc1nnc(COc2ccccc2F)s1 do in these assays?
Beta2AR agonist: -11; LANA-H2A inh: -2.1; Vif A3G: 7%; HNF4A DNA FP: 3.3; RanGTP-Impb inh: -2.7; ALR inh: 0; Calb FLC: -7

How did COc1ccc(NC(=O)c2ccc[n+]([O-])c2)cc1 do in these assays?
Beta2AR agonist: 0; LANA-H2A inh: 4.2; HNF4A DNA FP: -2.1; RanGTP-Impb inh: 2.1; ALR inh: -3; Calb FLC: -2

Results for O=C(OCc1nc2ccccc2s1)c1cnccn1 ?
Beta2AR agonist: 1; LANA-H2A inh: -6.7; Vif A3G: inconclusive; HNF4A DNA FP: 3.4; RanGTP-Impb inh: 1.1; ALR inh: 9; Calb FLC: 0

Results for COc1ccc(-n2c(O)c(C=NC3CC3)c(=O)[nH]c2=O)cc1 ?
Beta2AR agonist: 6; LANA-H2A inh: -2.3; Vif A3G: -6%; HNF4A DNA FP: 1.6; RanGTP-Impb inh: -0.7; ALR inh: -5; Calb FLC: -4

How did CC(Oc1ccccc1)C(=O)N(CCC1=CCCCC1)c1c(N)n(Cc2ccccc2)c(=O)[nH]c1=O (centres undefined) do in these assays?
Beta2AR agonist: -5; LANA-H2A inh: 6.3; Vif A3G: 5%; HNF4A DNA FP: 3.7; RanGTP-Impb inh: 4.4; ALR inh: -2; Calb FLC: 31

Results for CN(C)C(CNC(=O)CNC(=O)c1ccc(Br)cc1)c1ccccc1 (centres undefined) ?
Beta2AR agonist: 2; LANA-H2A inh: -2.0; Vif A3G: 6%; HNF4A DNA FP: 2.1; RanGTP-Impb inh: -0.4; ALR inh: -2; Calb FLC: -9

What do the screens show for `Cc1[nH]n(C(N)=S)c(=O)c1N=Nc1ccc(S(=O)(=O)N2CCCC2)cc1`?
Beta2AR agonist: -3; LANA-H2A inh: -4.3; Vif A3G: 3%; HNF4A DNA FP: -1.5; RanGTP-Impb inh: 4.2; ALR inh: 1; Calb FLC: -20

How did Cc1cc2oc(=O)sc2cc1NS(=O)(=O)c1ccccc1 do in these assays?
Beta2AR agonist: 10; LANA-H2A inh: -4.4; HNF4A DNA FP: 4.6; RanGTP-Impb inh: -0.9; Calb FLC: -13

What do the screens show for `O=C(CCCCC(=O)NCCCc1ccccc1)NCCCc1ccccc1`?
Beta2AR agonist: -12; LANA-H2A inh: 2.2; HNF4A DNA FP: -0.7; RanGTP-Impb inh: -0.1; Calb FLC: 7

How did COC(=O)Cc1c(OC)ccn(CCc2c[nH]c3ccccc23)c1=O do in these assays?
Beta2AR agonist: 5; LANA-H2A inh: -3.0; HNF4A DNA FP: -0.3; RanGTP-Impb inh: -2.1; ALR inh: 7; Calb FLC: -5

What do the screens show for `CC(=O)c1cccn1S(=O)(=O)c1ccccc1`?
Beta2AR agonist: -3; LANA-H2A inh: -4.1; Vif A3G: -5%; HNF4A DNA FP: 0.6; RanGTP-Impb inh: 1.1; ALR inh: 2; Calb FLC: -5

What do the screens show for `O=C(NNC(=O)C12CC3CC(CC(C3)C1)C2)c1ccncc1`?
Beta2AR agonist: -4; LANA-H2A inh: -8.4; HNF4A DNA FP: 0.5; RanGTP-Impb inh: inconclusive; ALR inh: -6; Calb FLC: 1

What do the screens show for `COC(=O)C1CCN(C(=O)c2ccc3nc(-c4cccc(OC)c4)oc3c2)CC1`?
Beta2AR agonist: 13; LANA-H2A inh: 1.1; Vif A3G: 10%; HNF4A DNA FP: 8.2; RanGTP-Impb inh: 4.4; ALR inh: -12; Calb FLC: 13

Results for CC(C)Cn1c(=O)c2sccc2n2c(CCCC(=O)NC3CCN(Cc4ccccc4)CC3)nnc12 ?
Beta2AR agonist: -16; LANA-H2A inh: 1.0; Vif A3G: -5%; HNF4A DNA FP: 5.2; RanGTP-Impb inh: -1.8; ALR inh: 3; Calb FLC: 16

What do the screens show for `CCOC(=O)N1CCN(CC(=O)N2CCC(C(N)=O)CC2)CC1`?
Beta2AR agonist: -16; LANA-H2A inh: 1.8; Vif A3G: inconclusive; HNF4A DNA FP: -2.8; RanGTP-Impb inh: -2.6; ALR inh: -2; Calb FLC: -7

Retrieved one by one from above, four records:
How did Cc1cc2oc(=O)sc2cc1NS(=O)(=O)c1ccccc1 do in these assays?
Beta2AR agonist: 10; LANA-H2A inh: -4.4; HNF4A DNA FP: 4.6; RanGTP-Impb inh: -0.9; Calb FLC: -13

What do the screens show for `O=C(CCCCC(=O)NCCCc1ccccc1)NCCCc1ccccc1`?
Beta2AR agonist: -12; LANA-H2A inh: 2.2; HNF4A DNA FP: -0.7; RanGTP-Impb inh: -0.1; Calb FLC: 7

What do the screens show for `Cc1[nH]n(C(N)=S)c(=O)c1N=Nc1ccc(S(=O)(=O)N2CCCC2)cc1`?
Beta2AR agonist: -3; LANA-H2A inh: -4.3; Vif A3G: 3%; HNF4A DNA FP: -1.5; RanGTP-Impb inh: 4.2; ALR inh: 1; Calb FLC: -20

How did COC(=O)Cc1c(OC)ccn(CCc2c[nH]c3ccccc23)c1=O do in these assays?
Beta2AR agonist: 5; LANA-H2A inh: -3.0; HNF4A DNA FP: -0.3; RanGTP-Impb inh: -2.1; ALR inh: 7; Calb FLC: -5

Following part.
What do the screens show for `CCC(C(=O)N1CCN(S(C)(=O)=O)CC1)c1ccccc1` (centres undefined)?
Beta2AR agonist: -3; LANA-H2A inh: -3.3; Vif A3G: 1%; HNF4A DNA FP: 1.3; RanGTP-Impb inh: 1.0; ALR inh: -4; Calb FLC: -2

Results for CCOC(=O)C1=C(COC(=O)COc2ccc(C(=O)CC)cc2)NC(=O)NC1C (centres undefined) ?
Beta2AR agonist: -2; LANA-H2A inh: -3.7; Vif A3G: -3%; HNF4A DNA FP: -1.7; RanGTP-Impb inh: 9.2; ALR inh: -2; Calb FLC: -1

How did Cc1ccccc1C(=O)N1CCC(C(=O)NCc2ccc(Cl)cc2)CC1 do in these assays?
Beta2AR agonist: 1; LANA-H2A inh: -4.0; HNF4A DNA FP: -2.5; RanGTP-Impb inh: 8.8; ALR inh: 40; Calb FLC: -1

Results for COC(=O)c1ccc(CSc2ccc3nnc(-c4ccc(F)cc4)n3n2)o1 ?
Beta2AR agonist: 7; LANA-H2A inh: 1.2; Vif A3G: -29%; HNF4A DNA FP: 1.1; ALR inh: -5

Results for CCc1ccc(-c2nc(CS(=O)CC(=O)NCc3ccccc3)c(C)o2)cc1 (centres undefined) ?
Beta2AR agonist: 4; LANA-H2A inh: 2.8; HNF4A DNA FP: 1.7; RanGTP-Impb inh: 24; ALR inh: 99*; Calb FLC: 2

Results for c1ccc(Nc2ccccn2)cc1 ?
Beta2AR agonist: 0; LANA-H2A inh: 0.0; Vif A3G: >100µM*; HNF4A DNA FP: -1.6; RanGTP-Impb inh: -5.1; ALR inh: -15; Calb FLC: -1

What do the screens show for `Cc1cc(N/N=C/c2c(O)ccc3ccccc23)nc(-c2ccccc2O)n1`?
Beta2AR agonist: 9; LANA-H2A inh: 0.7; HNF4A DNA FP: 1.1; RanGTP-Impb inh: 1.0; ALR inh: -5; Calb FLC: 82*

Compound activity from PubChem BioAssay.
